# Mtb growth: M. tuberculosis H37Rv growth inhibitors, H37Rv strain (AID 1626); M. tuberculosis H37Rv growth inhibition; higher % means a stronger effect; inhibition, % at 10 µM, or IC50 in µM where a hit was titrated; 220,000 tested, 0.95% active;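 active means confirmed in a dose series; inconclusive means inhibition above 80% but not taken into the dose series; inactive means below 80% or under 30% at every dose of the series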;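 further: bacteria incubated seven days before Alamar blue readout; 0% = bacteria only wells and 100% = bacteria with antibiotic wells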
# Mtb betalactam: beta-lactam sensitization of Mtb H37Rv | M. tuberculosis H37Rv growth with meropenem, percent inhibition; hits of this screen are not shown here | inhibition, % at 25 µM | 330,000 tested, 0.27% active | AID 434955;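 active means about 74% or more and at least 40 points above the plate without the antibiotic, then above 30% in a dose series; inconclusive means first-round hits that could not be retested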;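 further: growth measured after seven days incubation then overnight dye step; 0% = bacteria only wells and 100% = bacteria with antibiotic; twin plates without the antibiotic show which effects depend on it; some results filed as inactive read as strong as hits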
# RecA splice inh: Mtb RecA intein splicing inhibition | inhibition, %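 (about 9 µM by stock and volumes)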 | P9WHJ3 | cell-free RecA intein splicing, fluorescence | 290,000 tested, 0.75% active; in the data active means inhibition above about 30%; inconclusive means no clear call, values can overlap the other calls;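 further: 0% = vehicle wells and 100% = reference inhibitor control wells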
# Target sequence (P9WHJ3 whole entry, looked up, canonical isoform): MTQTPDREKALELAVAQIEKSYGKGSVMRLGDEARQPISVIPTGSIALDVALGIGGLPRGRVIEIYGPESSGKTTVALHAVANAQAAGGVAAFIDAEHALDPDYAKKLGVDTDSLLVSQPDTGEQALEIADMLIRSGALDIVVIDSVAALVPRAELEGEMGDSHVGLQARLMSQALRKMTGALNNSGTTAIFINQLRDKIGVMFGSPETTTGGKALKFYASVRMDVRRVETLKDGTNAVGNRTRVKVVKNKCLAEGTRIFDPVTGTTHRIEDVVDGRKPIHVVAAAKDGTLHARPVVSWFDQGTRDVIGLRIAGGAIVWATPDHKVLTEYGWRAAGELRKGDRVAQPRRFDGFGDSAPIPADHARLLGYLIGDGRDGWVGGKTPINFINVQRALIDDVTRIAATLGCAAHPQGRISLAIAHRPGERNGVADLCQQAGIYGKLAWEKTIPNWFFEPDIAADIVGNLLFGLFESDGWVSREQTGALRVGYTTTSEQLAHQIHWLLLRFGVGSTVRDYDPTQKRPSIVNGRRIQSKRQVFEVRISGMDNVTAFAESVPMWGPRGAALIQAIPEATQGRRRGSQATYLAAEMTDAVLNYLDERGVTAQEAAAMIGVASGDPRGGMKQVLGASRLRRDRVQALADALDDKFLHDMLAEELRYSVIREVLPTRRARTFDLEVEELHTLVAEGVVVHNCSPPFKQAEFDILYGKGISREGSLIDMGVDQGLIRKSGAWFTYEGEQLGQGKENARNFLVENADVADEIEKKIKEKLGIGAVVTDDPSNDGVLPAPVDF
# YopH inh: inhibitors of Yersinia enterocolitica YopH tyrosine phosphatase; fluorescence Ex485/Em525; inhibition, %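 (about 10 µM by stock and volumes)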; 140,000 tested, 0.16% active;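 active means inhibition of 50% or more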;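 further: controls were vehicle for no effect and minimum signal wells for full effect; inactives centre near -20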
# Arbovirus inh: arbovirus infection inhibition. arbovirus infection cell-based antiviral screen. inhibition, % at 10 µM. 200,000 tested, 0.37% active. AID 1251;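 active means inhibition from about 30%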;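 further: bluetongue infection of BSR cells; cell survival read as ATP light after 72 h; 0% = infected wells without compound and 100% = uninfected wells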
# Arbovirus inh repeat: second read-out of Arbovirus inh, no call of its own (marks repeat the call); inhibition, %; measured here: 10K subset replicate screen; many hits read low in the repeat;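 first of two repeat runs on a subset; 0% = infected and 100% = uninfected wells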
# * marks the source's active call; other numbers are inactive results; ? = inconclusive; . = not tested or not shown. Not all compounds are listed; rates above refer to the full screens.
SMILES,Mtb growth,Mtb betalactam,RecA splice inh,YopH inh,Arbovirus inh,others
O=C(CSc1ccc([N+](=O)[O-])cc1)Nc1cccc(S(=O)(=O)Nc2ccccc2F)c1,0%,17,-1.3,.,-3,
Cc1ccccc1NC(=O)Cn1c(=O)n(C)c2ccccc21,-6%,-17,-2.1,-9,-2,
CCN(c1ccccc1)S(=O)(=O)c1cc2c3c(c1)C(C)C(=O)N3CCC2 (centres undefined),.,-2,-1.9,.,.,
NNC(=O)CNc1cccc(Br)c1,0%,-3,0.5,.,.,
O=C(Nc1ccc([N+](=O)[O-])cc1)Nc1ccon1,.,-1,-6.3,.,.,
COc1cccc(CN(C)C(=O)C23CC4CC(CC(C4)C2)C3)c1,.,3,8.0,.,.,
CCNC(=S)NNc1nc(N2CCCCC2)nc(N2CCOCC2)n1,-2%,-3,0.3,.,7,
CC(NC(=O)Nc1ccccc1F)C(C)(C)C (centres undefined),-8%,8,1.0,.,4,
CC1CN(C(=O)Cc2ccc(-c3ccccc3)cc2)CC(C)O1 (centres undefined),7%,-4,0.8,-19,13,
O=C(NCCCn1ccnc1)c1cccc(Cl)c1,.,-2,-1.4,.,.,
CC(Oc1ccc(F)cc1)C(=O)Nc1ccc(N2CCOCC2)cc1N1CCOCC1 (centres undefined),.,-8,-1.4,.,.,
Cc1ccc(CNS(=O)(=O)c2ccc([N+](=O)[O-])cc2)cc1,.,2,1.5,.,.,
COc1ccc(CCNC(=O)CN2CCCc3ccccc32)cc1OC,0%,-18,-2.1,-34,4,
OCC1CCCN(C2CCN(Cc3nc(Cc4cccc(C(F)(F)F)c4)no3)CC2)C1 (centres undefined),-9%,-12,-0.8,.,-7,
Cc1ccccc1Cn1nc(C)c(NC(=O)c2noc3c2CC(C(C)(C)C)CC3)c1C (centres undefined),-3%,-7,5.6,-26,-4,
CCN(CC(=O)Nc1ccc(NC(C)=O)cc1)C(=O)c1cccc(S(=O)(=O)N2c3ccccc3CC2C)c1 (centres undefined),.,-2,5.0,.,.,
CCn1c(Cc2ccc(OC)cc2)nnc1SCC(=O)Nc1nc2ccccc2s1,-4%,-7,-2.8,-3,6,
Cc1ccc(C(=O)Nc2ccc(C(=O)N3CCCCC3C)cc2)cc1 (centres undefined),7%,7,-4.1,.,-7,
Cc1ccc(S(=O)(=O)N2CCC(c3nnc(SCCN4CCCC4)n3C)CC2)cc1,.,1,1.4,.,.,
COc1ccc(C2CC(=O)C(C=NCC(C)C)=C(O)C2)cc1 (centres undefined),.,1,0.3,.,.,
COc1ccc(C2C(C#N)=C(N)N(Nc3ccccc3)C3=C2C(=O)CC(C)(C)C3)cc1C (centres undefined),15%,-6,-2.1,-21,-2,
C=C1CCN([C@H](C(=O)NCc2ccc(OC)cc2)C(C)C)S(=O)(=O)c2ccccc21,-10%,0,0.2,.,.,
CCCN(CCC)C(=O)c1ccc2c(c1)N(CC)C(=O)c1ccccc1S2(=O)=O,.,-5,-0.3,.,.,
CN1CCN(C(=O)/C=C/c2ccccc2)CC1,.,-4,1.0,.,.,
COc1ccc(NC(=O)c2ccc(Cn3cc(Cl)cn3)cc2)cc1,-6%,-5,-3.0,.,0,
CCCOC(=O)Nc1nc(-c2ccc(C)cc2)c(C)s1,1%,0,0.6,.,13,
CC(=O)N[C@H]1[C@H]([C@H](O)[C@H](O)CO)OC(C(=O)O)=C[C@@H]1O,-11%,7,0.6,.,.,
O=C(Nc1ncc(S(=O)(=O)c2ccc([N+](=O)[O-])cc2)s1)c1ccccc1F,-5%,8,-0.3,.,.,
Cc1ccc(C(=O)n2c3ccccc3c3ccccc32)cc1,17%,-5,1.3,-8,-13,
C=CCOC(=O)C1=C(C)N=C2SCCC(=O)N2C1/C=C/c1ccccc1 (centres undefined),9%,5,13,.,2,

# The closing four entries of the part before are carried over, then new ones follow:
SMILES,Mtb growth,Mtb betalactam,RecA splice inh,YopH inh,Arbovirus inh,others
CC(=O)N[C@H]1[C@H]([C@H](O)[C@H](O)CO)OC(C(=O)O)=C[C@@H]1O,-11%,7,0.6,.,.,
O=C(Nc1ncc(S(=O)(=O)c2ccc([N+](=O)[O-])cc2)s1)c1ccccc1F,-5%,8,-0.3,.,.,
Cc1ccc(C(=O)n2c3ccccc3c3ccccc32)cc1,17%,-5,1.3,-8,-13,
C=CCOC(=O)C1=C(C)N=C2SCCC(=O)N2C1/C=C/c1ccccc1 (centres undefined),9%,5,13,.,2,
Cc1ccc(C(C)C)cc1OCCOCCN1CCCC1,-11%,-1,-0.7,-1,-12,
CCC1Sc2ccc(S(=O)(=O)CCC(=O)Nc3ccc(C(=O)OC)cc3)cc2NC1=O (centres undefined),.,-3,0.9,.,.,
O=C(NCCO)c1ccc2[nH]c3ccccc3c2c1,-3%,-1,-1.0,-42,1,
Cc1c(Cl)cccc1NC(=O)NCc1cccnc1,.,2,-1.8,.,.,
CCCCCCCOC(=O)c1ccc(OC(=O)c2cccnc2)cc1,9%,3,64*,-18,2,
Cc1ccc(C(=O)N(C)CC(=O)Nc2cccc(C)c2C)o1,.,-1,-1.6,.,.,
O=C(NCC(c1ccco1)N1CCc2ccccc2C1)C(=O)Nc1ccccc1F (centres undefined),.,2,9.0,.,.,
COc1cc(C=C2C(=O)c3ccccc3C2=O)cc(OC)c1OC,43%,7,.,.,-3,
O=C(Cc1ccccc1)NC(=S)Nc1cccc(C(F)(F)F)c1,3%,54,-4.7,-2,4,
COc1cnc(SCC(=O)O)[nH]c1=O,1%,2,2.0,-38,5,
CCOC(=O)N1CCN(C(=O)/C(=C/c2cccs2)NC(=O)c2cccs2)CC1,-1%,-6,3.9,.,11,
CC(C)N1CC=C(c2c[nH]c3ccccc23)CC1,-8%,-5,0.6,-37,-6,
O=C1C2C3C=CC(C3)C2C(=O)N1c1cccnc1 (centres undefined),-2%,6,1.7,11,-3,
CC1CCN(S(=O)(=O)c2ccc(S(=O)(=O)NCc3ccccc3)cc2)CC1,1%,-9,-2.5,7,-6,
COc1cccc(CNCCc2c[nH]c3ccccc23)c1,.,8,-0.4,.,.,
CC1(C)CC(C)(c2ccc(O)cc2O)N(c2ccc3ccccc3c2)C(=S)N1 (centres undefined),4%,1,12,-24,0,
CCCCc1cc(=O)oc2cc(OCC(=O)N(CC)CC)c(Cl)cc12,3%,-10,1.3,-19,0,Arbovirus inh repeat=-3
CCOc1ccc(OCC)c(NC(=O)CNS(=O)(=O)c2cccs2)c1,-7%,1,1.9,-50,0,
O=C(CCc1ccccc1)c1ccc2c(c1)OCCCO2,0%,-24,2.7,11,6,
CCOc1ccc(C(=O)NC(=S)Nc2cccc(NC(=O)c3ccco3)c2)cc1[N+](=O)[O-],-5%,-5,2.2,-42,-9,

# Among those listed so far, 4 have an NH in an aromatic ring:
SMILES,Mtb growth,Mtb betalactam,RecA splice inh,YopH inh,Arbovirus inh,others
O=C(NCCO)c1ccc2[nH]c3ccccc3c2c1,-3%,-1,-1.0,-42,1,
COc1cnc(SCC(=O)O)[nH]c1=O,1%,2,2.0,-38,5,
CC(C)N1CC=C(c2c[nH]c3ccccc23)CC1,-8%,-5,0.6,-37,-6,
COc1cccc(CNCCc2c[nH]c3ccccc23)c1,.,8,-0.4,.,.,

# Following part
SMILES,Mtb growth,Mtb betalactam,RecA splice inh,YopH inh,Arbovirus inh,others
O=C(CN1CCOCC1)NNC(=S)Nc1ccccc1,-1%,3,-1.4,.,7,
Cc1cc(/C=C2\C(=O)NC(=O)N(c3ccccc3F)C2=O)c(C)n1-c1cc(C(=O)O)cc(C(=O)O)c1,.,-2,-13,.,.,
CC(C)CCOCC(O)CCC(=O)NNC(=S)Nc1ccccc1 (centres undefined),-6%,-4,1.2,-21,-2,
Cc1cc(NC(=O)c2ccccc2)n(-c2nc3ccccc3[nH]2)n1,60µM*,89,1.3,.,-6,
CCOc1ccc(N(Cc2ccc(C(=O)O)cc2)S(=O)(=O)c2ccc(C)cc2)cc1,.,7,-1.2,.,.,
CCOC(=O)c1cc2c(=O)n3ccccc3nc2n(Cc2ccco2)c1=NC(=O)c1cccc(OC)c1,-1%,3,-18,.,-18,
Cc1nc(-c2ccc(S(=O)(=O)Nc3cccc(Cl)c3)cc2)co1,.,2,-2.6,.,.,
Cc1c2c(nc3c(C(=O)NC4CC4)cnn13)CCCC2,1%,4,-0.9,-35,-1,
O=C(Cn1cc(C(=O)c2ccccc2F)c2ccccc21)NCc1ccco1,-9%,2,2.4,-7,3,
CC(=O)c1ccc(N2CCN(S(=O)(=O)c3cc(-c4cc(C)no4)ccc3C(C)C)CC2)cc1,.,6,-5.1,.,.,
O=C(c1ccc(C(F)(F)F)cc1)C1CCCN(Cc2ccc(CO)o2)C1 (centres undefined),0%,1,-14,.,4,
CCCNCC1C(Oc2ccc(Cl)cc2Cl)C(=O)N1c1cccc(C)c1C (centres undefined),?,42,7.3,.,-41,
Nc1nonc1C(=O)NCCNS(=O)(=O)c1ccc(Br)cc1,-5%,-2,-0.2,-34,5,
Cc1cc(OCCN2CCCC2)ccc1C(C)C,-1%,-18,-1.7,-21,2,Arbovirus inh repeat=-5
CCc1ccc(N2CC(C(=O)Nc3ccc(C)c(S(=O)(=O)N4CCOCC4)c3)CC2=O)cc1 (centres undefined),2%,-10,-1.0,-48,-15,
CCOC(=O)C1CCN(C(=O)CSCCSCC(=O)N2CCC(C(=O)OCC)CC2)CC1,-7%,-23,-2.7,-24,1,
CCOc1ccc(S(=O)(=O)N(C)C2CCCCC2)cc1,.,?,6.9,.,.,
CCC(C)NC(=O)CC(c1ccccc1)c1cc(C)ccc1O (centres undefined),1%,-1,-3.6,.,7,
Cc1ccc(S(=O)(=O)Nc2cccc(-c3cn4ccsc4n3)c2)cc1,-6%,1,5.3,-26,-12,
CC(=O)N1CCN(c2ccc(NC(=O)c3ccccc3)cc2)CC1,.,-2,-3.1,.,.,
COc1ccc(/C=C/c2nc(-c3ccccc3O)n(-c3ccccc3)n2)cc1,-4%,10,-0.5,-18,-8,
COc1ccc(OC)c(-n2c(=S)[nH]c3cc(C(=O)N4CCN(c5ccccc5)CC4)ccc3c2=O)c1,-2%,1,-1.5,.,9,
COC(=O)[C@@]1(Cc2ccc(F)cc2)[C@H]2c3cc(C(=O)N(C)C)n(Cc4c(CO)[nH]cc(C)c4=O)c3C[C@H]2CN1C(=O)c1ccccc1,-5%,-11,.,-12,8,
CCc1ccc(-c2csc(-c3c[nH]c4ccccc34)n2)cc1,?,94,2.3,-33,7,
CCOc1ccc(N(CC(=O)NCc2ccc(C)cc2)S(=O)(=O)c2c(C)[nH]c(=O)[nH]c2=O)cc1,.,-5,1.3,.,.,
COC(=O)NC(NC(=S)Nc1cccc(C)c1)C(Cl)(Cl)Cl (centres undefined),-2%,-2,-0.5,.,-4,
CCCOc1ccc(CSc2n[nH]c(C)n2)cc1,10%,5,1.0,.,.,
NC(=O)c1sc2cc(C(F)(F)F)cnc2c1-c1ccccc1,5%,-1,.,.,-2,
CCC(=O)Nc1ccc(C(=O)NNC(=O)c2ccccc2)cc1,-2%,8,-2.2,.,2,
CC(C)[C@H]1COCCS(=O)(=O)N1Cc1ccccc1,-15%,-6,0.9,.,.,
Cc1cc(Oc2ccc(=O)n(C)n2)nc(SCc2ccccc2)n1,0%,1,-0.4,.,-1,
O=C(NC1CCCC1)C1c2ccccc2C(=O)N1CCCN1CCOCC1 (centres undefined),.,-3,-0.7,-32,4,Arbovirus inh repeat=7
Cc1cc(=O)[nH]c(N/N=C/c2ccccc2C(F)(F)F)n1,0%,-3,0.3,.,-5,
Cc1cc(=O)n2nc(-c3ccccc3)sc2n1,-9%,3,-9.9,9,3,
Cc1ccc(C(=O)OCCOc2cccc(Cl)c2)cc1S(=O)(=O)N1CCOCC1,.,-4,-0.8,.,.,
O=C(OCCN=C1NS(=O)(=O)c2ccccc21)c1cccs1,-6%,3,1.9,.,-2,
CCn1c(=O)c2c(n3cnnc13)-c1ccccc1CC21CCCCC1,5%,-8,-1.3,-41,1,
Cc1nc2c(ccc3c2ccc2nc(C)sc23)s1,2%,-9,2.6,-8,0,

# Screens deposited in PubChem BioAssay by several laboratories.
